LASV entry inh: Lassa virus entry inhibition | Potency, µM (titrated, usually from 37.9 µM), for inactives: at the top dose activity change, negative = inhibition, usual class: inhibitors | AID 540256 | Lassa virus pseudotype entry inhibition, cell reporter; control for the full effect not named in the record | 1.2% of 300,000 active; active means well fitted inhibition curve with a large enough effect; inconclusive means small, poorly fitted or top-dose-only effect, or effect the other way; inactive means flat fitted curve, though single readings scatter; tested in HEK293 cells; also: % is scaled to controls: 0 for no effect and ±100 for the full control effect; nearly all actives have a fitted effect of over 50% in size; luciferase read-out
2A StopGo: lowers the luciferase signal of an FMDV 2A StopGo reporter; human cells with a luciferase reporter of 2A StopGo recoding; control for the full effect not named in the record; Potency, µM (series often up to 57.9 µM), inactives show at the top dose signal change, negative = less light; 1.2% of 410,000 active; AID 1159524; active = well fitted falling curve with a large enough effect; inconclusive = small, poorly fitted or top-dose-only effect; inactive = no such curve, though single readings can be large or run the other way; tested in HEK293T cells; also: % is scaled to controls: 0 for no effect and ±100 for the full control effect; nearly all actives have a fitted effect of over 45% in size; luciferase light after 4 h
MARV entry inh: Marburg virus entry inhibition; Marburg virus pseudotyped entry inhibition, cell reporter; control for the full effect not named in the record; about a third of the inactives were read at about 46 µM; Potency, µM (series often up to 37.8 µM), for inactives: at the top dose activity change, negative = inhibition, most hits filed as inhibitors; 1.8% of 300,000 active; AID 540276; active = well fitted inhibition curve with a large enough effect; inconclusive = small, poorly fitted or top-dose-only effect, or effect the other way; inactive = flat fitted curve, though single readings scatter; tested in HEK293 cells; about a fifth of its hits are not listed in these tables; also: % is scaled to controls: 0 for no effect and ±100 for the full control effect; luciferase read-out
Cruzain inh Det: cruzain (T. cruzi) inhibition with detergent. Potency, µM, for the others: max response, negative = inhibition, most hits filed as inhibitors. 0.43% of 200,000 active. P25779. purified cruzain, Z-FR-AMC fluorescence, 0.01% Triton;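 also: plate controls were neutral wells for no effect and buffer without enzyme for full effect; nearly all actives have a fitted effect of over 40% in size; top concentration of the series not given in the record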
Target sequence (P25779 123-467 limits assumed): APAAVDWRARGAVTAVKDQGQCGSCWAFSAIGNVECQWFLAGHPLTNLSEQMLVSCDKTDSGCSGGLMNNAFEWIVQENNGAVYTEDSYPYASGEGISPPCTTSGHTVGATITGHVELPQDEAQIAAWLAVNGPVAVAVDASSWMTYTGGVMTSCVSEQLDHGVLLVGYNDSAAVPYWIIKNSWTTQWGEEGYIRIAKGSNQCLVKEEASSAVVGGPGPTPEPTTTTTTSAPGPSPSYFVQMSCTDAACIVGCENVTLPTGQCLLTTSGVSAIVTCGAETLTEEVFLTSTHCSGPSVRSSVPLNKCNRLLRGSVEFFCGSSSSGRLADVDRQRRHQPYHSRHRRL
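15 min RT preincubation of 1.5 nM cruzain with compound, then 2 uM Z-FR-AMC added; kinetic AMC fluorescence, 60 s delta. Triton X-100 0.01%, pH 5.5.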
SARS PLpro yeast: blocks SARS-CoV papain-like protease in a yeast assay | S. cerevisiae expressing SARS-CoV PLpro, growth rescue; control for the full effect not named in the record | Potency, µM (top dose mostly 32.9 µM), inactives show at the highest dose activity, positive = growth rescue | 0.19% of 330,000 active | AID 485353; active means well fitted rising curve with a large enough effect; inconclusive means small, poorly fitted or top-dose-only effect; inactive means no such curve, though single readings can be large or run the other way; also: 0% is about no effect; nearly all actives have a fitted effect of over 55% in size; growth read by luminescence after 48 h
NS1 inh: inhibitors of influenza NS1 protein function | S. cerevisiae slowed by influenza A NS1, growth recovery by OD600 | Potency, µM (highest dose often 46.1 µM), without a hit: at the top dose activity, positive = more growth | 0.4% of 270,000 active; active means well fitted rising curve with a large enough effect; inconclusive means small, poorly fitted or top-dose-only effect; inactive means no such curve, though single readings can be large or run the other way; also: nearly all actives have a fitted effect of over 50% in size
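Recovery from NS1-induced slow growth read by OD600 in budding yeast switched to galactose assay medium (pH 6.0, -URA) at 1:100 dilution. Compound 23 nl per well; the matching strain lacking NS1 serves as control.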
RE007 growth inh: less growth of the S. pombe RE007 Vpr strain; 0.21% of 360,000 active; Potency, µM (highest dose often 92.2 µM), for inactives: top-dose activity change, negative = less growth; S. pombe RE007 Vpr strain, BacTiter-Glo ATP luminescence, 24 h; control for the full effect not named in the record; active = well fitted falling curve with a large enough effect; inconclusive = small, poorly fitted or top-dose-only effect; inactive = no such curve, though single readings can be large or run the other way;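 also: % is scaled to controls: 0 for no effect and ±100 for the full control effect; nearly all actives have a fitted effect of over 50% in size; the assay follows cell death caused by Vpr and the record does not say whether a fall means rescue or toxicity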
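Fission yeast strain RE007, carrying one chromosomally integrated HIV-1 vpr copy, was seeded at OD 0.01 in PMG+AL medium with 23 nL pinned compound. After 24 h at 30 °C and 99% humidity, viability was read by BacTiter-Glo luminescence.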
Cruzain noTriton: inhibitors of Trypanosoma cruzi cruzain without detergent; P25779; AID 1476; 2.3% of 200,000 active; Potency, µM, inactives show max response, negative = inhibition, hits mostly inhibitors; purified cruzain, Z-FR-AMC fluorescence, no detergent;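 also: plate controls were enzyme without inhibitor for no effect and buffer without enzyme for full effect; nearly all actives have a fitted effect of over 40% in size; top concentration of the series not given in the record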
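Detergent-free condition (0.00005% Triton X-100) in acetate buffer pH 5.5 with DTT. 1.5 nM enzyme and compound were pre-mixed 15 min, then 2 uM Z-FR-AMC substrate added; reaction progress from fluorescence change between first and third reads (60 s).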
* marks the source's active call; other numbers are inactive results; ? = inconclusive; / = not tested or not shown; & = joins results of further samples; [ ] = dose if it differs, or a comment. Unless noted, calls follow the shape of the dose curve; as a rule, active = well fitted curve in the direction sought with a large enough effect; inconclusive = small, poorly fitted or top-dose-only effect, or another doubt; inactive = no such curve, though single readings can be large; an effect the other way counts as inactive or inconclusive. Potency is read from the fitted curve at half-maximal effect. Compounds were not picked by outcome. Share with any hit: about 4.5%.

SMILES	LASV entry inh	2A StopGo	MARV entry inh	Cruzain inh Det	SARS PLpro yeast	NS1 inh	RE007 growth inh	Cruzain noTriton
Cc1nn(C)c(C)c1NC(=O)CCSc1nc(-c2ccco2)cc(C(F)(F)F)n1	-9%	0%	-18%&-18%	-1.4%	2%	-2%	12%	?
CCN1CCN(c2ccc(N3CCN(C(=O)c4ccc(Br)o4)CC3)nn2)CC1	6%	-12%	?	/	1%	/	-15%	/
O=C(O)c1ccc2c(c1)C(=O)N(CCCCCCCN1C(=O)c3ccc(C(=O)O)cc3C1=O)C2=O	15%[46.1 µM]	-8%	4%[46.1 µM]	/	6%	13%	7%	/
COc1ccccc1-n1c(CNC(=O)c2cccs2)n[nH]c1=S	8%	-6%	-32%[46.1 µM]	/	-1%	/	5%	/
CCCc1cc(=O)[nH]c(SCC(=O)CSc2nc(CCC)cc(=O)[nH]2)n1	0%	-27%	0%	1.3%	3%	8.9µM*	1%	-5%
Cc1ccc(NC(=O)Cn2c(=O)n(CC3CCCO3)c(=O)c3ccccc32)cc1 (configuration not stated)	0%[46.1 µM]	14%	6%[46.1 µM]	-2.3%	/	/	/	4%
CC(=O)Nc1ccc(SCC(=O)N(CCC#N)c2cc(C)cc(C)c2)cc1	-3%	7%	?	0.8%	7%	3%	-5%	15%
Cc1cc(C)c2c(n1)nn1c(C)c(CCC(=O)Nc3cccc(C)c3C)c(C)nc21	6%[46.1 µM]	-27%	19%[46.1 µM]	-1.0%	/	/	/	?
C=CCNc1nnc(-c2ccncc2)s1	-3%	20%	4%	0.2%	-4%	1%	-11%	-9%
CCN(CC)CCn1c2c(c(SCC(=O)Nc3ccccc3Cl)nc1=O)CCC2	4%[46.1 µM]	-24%	-8%	/	-1%	/	3%	/
CCCC(C(=O)NC1CCCC1)N(C(=O)Cn1nnc(-c2ccc(C)o2)n1)C1CCCC1 (configuration not stated)	?	-13%	26µM*	-5.7%	0%	-13%	6%	?
CCOC(=O)C(=Cc1ccc2c(c1)OCO2)c1ccccc1	-15%[46.1 µM]	-8%	-1%[46.1 µM]	/	/	/	6%	/
CCc1ccc(OCC(=O)NC(NC(=S)Nc2ccccc2C)C(Cl)(Cl)Cl)cc1 (configuration not stated)	?	-9%	?	6.5%	11%	11%	-10%	?
O=C(NCc1cccc(C(F)(F)F)c1)C1CCC(=O)N(C2CCCCCC2)C1 (configuration not stated)	0%[46.1 µM]	0%	-2%[46.1 µM]	/	-4%	8%	-21%	/
CC(NC(=O)CN1CCN(Cc2ccc(Cl)cc2)C1=O)c1ccc2c(c1)OCCO2 (configuration not stated)	-10%	?	0%	0.7%	20%	-21%	12%	-1%
Cc1csc(NC(=O)C2=COCCO2)n1	-28%	5%	?	/	-3%	/	-20%	/
COc1cccc(-c2ccc3nnc(SCC(=O)Nc4ccc(NC(C)=O)cc4)n3n2)c1	-15%	-27%	-10%[46.1 µM]	/	4%	/	0%	/
COc1ccc(OCC(=O)Nc2cc(-c3nn(C)c(=O)c4ccccc34)ccc2N2CCOCC2)cc1	-6%	-30%	-17%[46.1 µM]	/	0%	1%	-7%	/
CC(Cc1ccccc1)C(=O)NCc1ccncc1 (configuration not stated)	-3%	-12%	1%	1.6%&-2.5%	10%	-12%	1%	-3%&-1%
Cc1cccc(N=Cc2[nH]c3ccc(Br)c(Cl)c3c2O)c1	-2%	-22%	4%	-4.5%	8%	-8%	-19%	?
O=C(CN1CCOc2ccccc21)NCc1cccs1	2%	44%[activator]	?	1.9%	0%	0%	4%	9%
Cn1c(=O)n(C)c2cc([N+](=O)[O-])c(N3CCN(S(=O)(=O)c4ccccc4)CC3)cc21	?	?	?	-6.2%	0%	-14%	-14%	?
COc1ccc(-c2cc(C(=O)NNC3=NCCC3)c3c(C)nn(-c4ccccc4)c3n2)cc1	6%	?	-1%	/	2%	/	1%	/
COc1cc(C(=O)N[C@H](C(=O)NC2CCCCCC2)C(C)C)cc(OC)c1OC	-4%	0%	29%	0.5%	-12%	-2%	3%	-7%
CCN(CC)S(=O)(=O)c1ccc(N2CCOCC2)c(NS(=O)(=O)c2ccc(C)cc2)c1	-20%	40%[activator]	-15%	-3.6%	8%	14%	4%	14%
O=C(CCn1c(=O)oc2ccccc21)NCc1ccc2c(c1)OCO2	/	?	/	0.1%	-7%	-17%	-7%	18%
Cc1c2cnn(CC(=O)Nc3cccc(C(F)(F)F)c3)c(=O)c2c(C)n1Cc1ccccc1F	-3%	-19%	0%	-1.3%	0%	2%	-6%	-3%
Cc1c(C(=O)N2CCN(Cc3ccccc3)CC2)sc2ncnc(N3CCOCC3)c12	1%	/	?	0.5%	6%	-5%	3%	0%
CC(NS(=O)(=O)c1ccc(OCC(=O)NCc2ccncc2)cc1)c1ccccc1 (configuration not stated)	/	26%	4.5µM*	/	1%	10%	5%	/
O=C(O)/C=C\C(=O)NCc1cccnc1	/	-12%	/	/	-3%	-1%	10%	/
Cc1ccc(NC(=O)CSCC(=O)Nc2ccccc2N2CCCC2)cc1	19%	7%	12%[46.1 µM]	/	-4%	/	4%	/
CCOC(=O)c1c(C)nc2c(c1-c1cc(OC)ccc1OC)C(=O)CC(C)(C)C2	/	-3%	/	/	1%	-1%	-12%	/
Cc1ccc(C(=O)NNC(=O)c2cccnc2SCc2cccc([N+](=O)[O-])c2)cc1	14%	5%	0%	4.8%	-2%	1%	-10%	11%
C/C(=N\NC(=O)c1[nH]c2c([N+](=O)[O-])cc(C)cc2c1-c1ccccc1)c1cccnc1	?	-18%	?	0.3%	-8%	8.9µM*	11%	20%
CCc1ccc2c(c1)/C(=N/N(C)C(=S)NC)C(=O)N2	16%	-4%	25%	-6.7%	7%	-5%	2%	-9%
CC1(C)SCC(C(=O)O)NC1=O (configuration not stated)	12%	-7%	-7%[46.1 µM]	/	-1%	2%	11%	/
O=C(c1cc2ccc3cccnc3c2[nH]1)N1CCN(c2ccccc2)CC1	29%[46.1 µM]	7%	/	-3.4%	/	/	/	-21%
CC(=O)Nc1ccc(NC(=O)/C=C/c2ccc(Cl)cc2)cc1	-3%	6%	1%	/	0%	/	3%	/
Cc1ccccc1Nc1c(-c2ccc(Br)o2)nc2ccc(Cl)cn12	11%[46.1 µM]	?	13%[46.1 µM]	-0.4%	/	/	/	12%
COc1ccccc1N1CCN(CC(=O)Nc2cc(F)ccc2C)CC1	-16%	?	-2%	-0.1%	-19%	-37%	6%	-1%
Cc1csc2nc(COc3ccc(NC(=O)COc4ccccc4F)cc3)cc(=O)n12	-4%[46.1 µM]	?	7%[46.1 µM]	-1.2%	/	/	/	0%
COc1ccc(CC2C(=O)OC(C)(C)OC2=O)cc1	14%	-4%	12%[46.1 µM]	2.0%	2%	?	23%	-3%
O=C(NC1CCCCCC1)c1ccc2c(c1)sc1nc(-c3ccc(F)cc3)cn12	5%[46.1 µM]	31%[activator]	/	-4.9%	/	/	/	-10%
COc1cc(C(=O)Nc2nonc2-c2ccc(Cl)cc2)cc(OC)c1OC	?	-19%	-13%[46.1 µM]	-7.8%	/	/	/	0%
O=C(NN1C(=O)CSC1=S)c1cccnc1	1%	-8%	-15%	/	5%	4%	2%	/
O=C(CSc1nc(-c2ccccc2)cc(=O)[nH]1)Nc1ccc(Br)cc1	-11%[46.1 µM]	-9%	10%[46.1 µM]	/	4%	5%	6%	/
O=C(COc1ccc(/C=N/NC(=O)c2ccncc2)cc1)Nc1ccc([N+](=O)[O-])cc1	10%	-16%	2%[46.1 µM]	/	0%	1%	4%	/
O=C(NCc1ccc(Cl)cc1)C(=O)NCC(c1ccco1)S(=O)(=O)c1cccs1 (configuration not stated)	-15%[46.1 µM]	-9%	/	-4.0%	/	/	/	3%
CN(C)c1cccc(NC(=O)C2(C)CC2(Cl)Cl)c1 (configuration not stated)	-1%	-16%	15%	-2.2%	6%	6%	-17%	14%
Clc1c(-c2ccccc2)nnn1-c1ccccc1	?	46%[activator]	-2%	-2.4%	-17%	-19%	-4%	7%

(further entries)
SMILES	LASV entry inh	2A StopGo	MARV entry inh	Cruzain inh Det	SARS PLpro yeast	NS1 inh	RE007 growth inh	Cruzain noTriton
COC(=O)CSc1nc(C)cc(C)c1C#N	26%[46.1 µM]	8%	-20%[46.1 µM]	/	-1%	-5%	4%	/
Cc1cccc(N(C)C(=O)CCS(=O)(=O)c2ccc3c(c2)oc(=O)n3C)c1	24%[46.1 µM]	-12%	/	-0.1%	/	/	/	1%
CC1(C(=O)NC(=S)N(CCC#N)c2ccccc2)CC1(Cl)Cl (configuration not stated)	6%	22%	?	1.4%	0%	-2%	26%	-3%
CN(C)c1ccc(N/C=C/C(=O)c2ccc(F)cc2)cc1	?	-19%	?	-0.9%	-8%	5%	-19%	?
Cc1c(C#N)c2ncnc(N)c2n1-c1ccccc1	9%	-10%	?	3.5%	-3%	12%	-2%	-6%
O=C(/C=N/O)Nc1cccnc1	-4%	-8%	?	-0.2%	2%	3%	1%	5%
CCCCOc1ccc(C(=O)NCC(=O)N2CC(C)OC(C)C2)cc1 (configuration not stated)	0%	4%	?	/	-5%	/	-27%	/
CN1C(=O)c2ccccc2OC1(C)Cc1ccccc1 (configuration not stated)	10%	?	5%	-2.8%	-13%	-10%	21%	5%
O=C(NN1CCN(Cc2ccccc2Cl)CC1)c1ccc(Cl)cc1	13%	?	-33%	1.8%	?	15%	-9%	6%
COc1cccc(C(=O)OCC(=O)NCCC2=CCCCC2)c1	2%	-1%	-19%	/	-5%	/	1%	/
CCc1ccc(NS(=O)(=O)c2cccc3nonc23)cc1	8%	5%	-26%[46.1 µM]	/	-4%	/	14%	/
CC(C)OP(=O)(c1ccc(N(C)C)cc1)C(O)c1ccc(C(C)C)cc1 (configuration not stated)	/	-4%	/	/	0%	4%	7%	/
NC(=O)C1(Nc2ccc(-c3ccc(Cl)cc3)cc2)CCCC1	1%	17%	-2%	/	/	/	6%	/
Cc1noc(C)c1S(=O)(=O)Nc1ccc(C#N)cc1	/	-2%	/	/	24%	5%	9%	/
O=C(O)C1CCC(CNS(=O)(=O)c2ccc(Br)cc2)CC1 (configuration not stated)	/	-20%	/	/	-2%	-3%	-2%	/
CCn1c(SCC(=O)NNC(=O)c2ccc(C)cc2)nnc1C(C)C	10%[46.1 µM]	-6%	1%[46.1 µM]	/	-1%	3%	3%	/
